FGF22 binding – FGF22 (human) thermal shift binding | Q9HCT0 | recombinant FGF22 thermal shift, SYPRO orange fluorescence; percent of sucrose octasulfate shift, DMSO zero | calls only at 9.99 µM | actives 1.5% (n = 340,000) | AID 651658;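 active means melting point raised past a set limit in the mean and every replicate; three in four hits are not shown here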
Target sequence (Q9HCT0 whole entry, looked up): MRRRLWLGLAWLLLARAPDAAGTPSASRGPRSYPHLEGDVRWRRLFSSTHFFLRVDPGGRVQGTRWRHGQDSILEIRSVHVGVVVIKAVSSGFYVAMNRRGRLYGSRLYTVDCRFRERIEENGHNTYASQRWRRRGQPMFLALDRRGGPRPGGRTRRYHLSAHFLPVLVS
Ecoli rRNA inh – inhibitors of bacterial rRNA selective over humanized ribosomes. actives 1.6% (n = 350,000). GFP signal change (wild-type ribosome), % (test concentration not listed). E. coli WT GFP vs humanized-ribosome RFP mutants, fluorescence, 24 h; active compounds read low; DMSO median 0, no signal -100;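 active means significant combined selectivity score with lowered wild-type GFP, culture density cut under 30%, mutant RFP and density less affected; inactive means any of these conditions unmet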; further: one replicate is shown; some compounds called inactive have numbers as strong as hits
UCH37 inh – inhibitors of human deubiquitinating enzyme UCH37. purified proteasome/UCH37, Ub-AMC cleavage fluorescence. inhibition, % (concentration not given with the values). actives 0.33% (n = 330,000). AID 588478;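 active means mean of two replicates above 20%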;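 further: 0% = compound-free wells with enzyme and 100% = wells lacking proteasome; stock transfer was 100 nL into about 20 µL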
Target sequence (Q9Y5K5 whole entry, looked up): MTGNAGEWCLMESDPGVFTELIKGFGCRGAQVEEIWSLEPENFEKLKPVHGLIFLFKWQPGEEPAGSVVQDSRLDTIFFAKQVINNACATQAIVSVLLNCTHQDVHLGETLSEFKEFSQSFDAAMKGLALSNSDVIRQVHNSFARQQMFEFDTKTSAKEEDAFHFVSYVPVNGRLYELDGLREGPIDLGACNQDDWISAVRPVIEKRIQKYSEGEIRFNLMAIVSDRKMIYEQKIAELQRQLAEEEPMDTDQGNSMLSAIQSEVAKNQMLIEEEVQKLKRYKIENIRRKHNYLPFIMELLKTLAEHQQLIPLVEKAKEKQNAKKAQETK
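Signal – fluorescence, ex 355 nm, em 460 nm · System – Proteasome-bound UCH37 · Input – 0.15 nM proteasome as dispensed · Timing – 30 min preincubation with enzyme, 25 min cleavage at room temperature · Read-out basis – percent inhibition of cleavage signal versus uninhibited and no-proteasome wells · Medium – Tris-HCl pH 7.4 with ATP-MgCl2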
Ecoli growth – E. coli growth inhibition; OD600 absorbance (test concentration not listed); Escherichia coli growth, OD600, 23 h; active compounds read low; actives 0.21% (n = 330,000);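 active means OD600 absorbance below the run mean of sample wells minus 3.6 SD, in any replicate, cut at about 0.56 in these data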;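 further: stock transfer was 300 nL into about 60 µL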
Beta apoptosis – blocks beta cell apoptosis; INS-1E cytokine-induced death, ATP luminescence, 48 h; percent of positive-control rescue, neutral wells zero; protection from apoptosis, % (test concentration not listed); actives 0.8% (n = 300,000);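 active means all replicates at 75% or more, or half of them and the mean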;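 further: 0% = cytokine-treated negative control wells and 100% = positive control rescue; higher means more ATP so stronger rescue from cytokine killing; wells of about 40 µL received 100 nL stock; the first replicate is given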
MLL AF4-AF9 inh – blocks AF4 peptide binding to human AF9. P42568. AlphaScreen, biotin-AF4 peptide binding to FLAG-AF9. inhibition, % at 10 µM. actives 0.47% (n = 350,000);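 active means every replicate reaching a set inhibition limit, whatever the replicate mean, cut at about 25% in these data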;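 further: 0% = plate neutral control median and 100% = total signal loss; the record names both 10 and 1 µM as test concentration; the first replicate is given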
Target sequence (P42568 whole entry, looked up): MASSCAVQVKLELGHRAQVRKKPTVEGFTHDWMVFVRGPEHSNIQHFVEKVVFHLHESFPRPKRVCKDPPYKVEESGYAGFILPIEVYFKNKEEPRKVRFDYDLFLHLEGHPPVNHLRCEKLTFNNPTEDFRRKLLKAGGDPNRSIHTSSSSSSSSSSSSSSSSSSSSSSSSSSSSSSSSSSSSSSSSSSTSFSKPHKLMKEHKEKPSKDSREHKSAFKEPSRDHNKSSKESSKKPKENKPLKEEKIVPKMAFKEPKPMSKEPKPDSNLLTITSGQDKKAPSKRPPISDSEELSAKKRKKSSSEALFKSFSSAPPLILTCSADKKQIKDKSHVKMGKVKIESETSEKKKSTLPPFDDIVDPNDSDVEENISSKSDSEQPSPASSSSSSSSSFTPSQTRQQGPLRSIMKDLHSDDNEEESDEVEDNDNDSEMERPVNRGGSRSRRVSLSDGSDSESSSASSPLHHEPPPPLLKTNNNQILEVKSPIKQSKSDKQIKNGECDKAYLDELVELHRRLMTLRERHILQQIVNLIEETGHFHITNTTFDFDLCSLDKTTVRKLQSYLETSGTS
T cruzi inh – T. cruzi replication inhibition; T. cruzi beta-gal in NIH3T3, luminescence, 90 h; inhibition, % (no concentration beside the values); actives 1.4% (n = 300,000); AID 1885;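 active means mean inhibition across valid replicates above about 55%, limit read from the data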;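 further: signal also drops with host cell toxicity which is not excluded here; 0% = plate median of DMSO wells and 100% = zero luminescence signal; higher percent means less beta-gal luminescence so fewer parasites; stock transfer was 50 nL into about 50 µL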
A1 inh – inhibitors of the anti-apoptotic protein A1, read as caspase activation | MEF A1-2A-BIM cells, Caspase-Glo 3/7 luminescence, 3 h; percent of clofoctol response, vehicle zero | caspase activation, % (no concentration beside the values) | actives 0.066% (n = 330,000);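 active means over half of replicate activation scores above 10%, or exactly half above 10 with the replicate mean above 10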;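 further: wells of about 30 µL received 50 nL stock; many hits fall short of the cut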
Ecoli rRNA inh OD600 – also measured in Ecoli rRNA inh; calls as there; OD600 change, %; measured here: OD600 growth;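 optical density of the mix in the first replicate; 0 = DMSO median and -100 = no signal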
Ecoli rRNA inh RFP – recorded beside Ecoli rRNA inh, whose call it bears; RFP signal change, %; measured here: RFP humanized mutant strains;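 first replicate; 0 = DMSO median and -100 = no signal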
* hit, by the source's call; & = joins results of further samples. A portion of the library; count on the stated rates, not on these rows.

What do the screens show for `CC1CCc2c(sc(NC(=O)Cn3cnc([N+](=O)[O-])n3)c2C(N)=O)C1` (centres undefined)?
FGF22 binding: inactive; Ecoli rRNA inh: 14; UCH37 inh: 3.2; Ecoli growth: 0.69; Beta apoptosis: 0; MLL AF4-AF9 inh: -1.1; T cruzi inh: 68*; A1 inh: -1.0; Ecoli rRNA inh OD600: 16; Ecoli rRNA inh RFP: 2.0

What do the screens show for `O=C(c1ccc(CS(=O)(=O)c2ccc(Br)cc2)o1)N1CCN(c2ncccn2)CC1`?
FGF22 binding: inactive; Ecoli rRNA inh: 2; UCH37 inh: 5.1; Ecoli growth: 0.72; Beta apoptosis: 0; MLL AF4-AF9 inh: 5.1; T cruzi inh: 10; A1 inh: 0.1; Ecoli rRNA inh OD600: 8; Ecoli rRNA inh RFP: 1.1

How did COc1cccc(CCN2CCC(CNS(=O)(=O)c3cc(-c4cc(C)no4)ccc3OC)CC2)c1 do in these assays?
FGF22 binding: inactive; Ecoli rRNA inh: 6; UCH37 inh: 1.6; Ecoli growth: 0.7; Beta apoptosis: -3; MLL AF4-AF9 inh: 4.9; T cruzi inh: 22; A1 inh: -0.3; Ecoli rRNA inh OD600: -5; Ecoli rRNA inh RFP: 5.1

What do the screens show for `COc1ccc(C(CNC(=O)Cn2c(=O)oc3ccccc32)N(C)C)cc1` (centres undefined)?
FGF22 binding: inactive; Ecoli rRNA inh: 0; UCH37 inh: 0.7; Ecoli growth: 0.7; Beta apoptosis: 0; MLL AF4-AF9 inh: -8.2; T cruzi inh: 2; A1 inh: -0.3; Ecoli rRNA inh OD600: 12; Ecoli rRNA inh RFP: 1.7

Results for CCO[C@H]1OC(C(=O)Nc2ccccc2)=C[C@@H](c2cn(C(C)=O)c3ccccc23)[C@@H]1CCCO ?
FGF22 binding: inactive; Ecoli rRNA inh: -7; UCH37 inh: 2.8; Beta apoptosis: -3; MLL AF4-AF9 inh: -0.1&0.3; T cruzi inh: 18; A1 inh: -1.4; Ecoli rRNA inh OD600: -9; Ecoli rRNA inh RFP: -0.6

What do the screens show for `COc1ccc(-c2cc(-c3nnc(COC(=O)c4ccncc4)o3)c3ccccc3n2)cc1OC`?
FGF22 binding: inactive; Ecoli rRNA inh: -2; UCH37 inh: -66; Ecoli growth: 0.73; Beta apoptosis: 1; MLL AF4-AF9 inh: -6.7; T cruzi inh: 0; A1 inh: -0.6; Ecoli rRNA inh OD600: 4; Ecoli rRNA inh RFP: -0.6

What do the screens show for `CCCc1nc2c(sc3nc4c(cc32)COC(C)(C)C4)c(=O)n1CCN(C)C`?
Ecoli rRNA inh: -3; UCH37 inh: -6.9; Ecoli growth: 0.7; Beta apoptosis: 4; MLL AF4-AF9 inh: -0.9; T cruzi inh: -9; A1 inh: 0.4; Ecoli rRNA inh OD600: 14; Ecoli rRNA inh RFP: -4.2

How did CSc1cccc(NC(=O)CNC(=O)c2ccc3c(c2)OCO3)c1 do in these assays?
FGF22 binding: inactive; Ecoli rRNA inh: -1; UCH37 inh: 2.5; Ecoli growth: 0.63; Beta apoptosis: 7; MLL AF4-AF9 inh: -0.8; T cruzi inh: -4; A1 inh: 1.0; Ecoli rRNA inh OD600: -6; Ecoli rRNA inh RFP: 4.0

What do the screens show for `O=C(N1CCCCC1)N1CCN(C(=O)N2CCCCC2)CC1`?
FGF22 binding: inactive; Ecoli rRNA inh: -16; Beta apoptosis: 1; MLL AF4-AF9 inh: -0.2; T cruzi inh: -1; A1 inh: 0.6; Ecoli rRNA inh OD600: -31; Ecoli rRNA inh RFP: -5.6

What do the screens show for `Cc1ccc(S(=O)(=O)N(C)CC(=O)NCc2ccncc2)cc1`?
UCH37 inh: 1.4; Ecoli growth: 0.72; Beta apoptosis: -3; T cruzi inh: -14; A1 inh: 0.5

What do the screens show for `Cc1cc(C)n(C(=O)c2cc3ccccc3c(=O)o2)n1`?
UCH37 inh: -1.9; Ecoli growth: 0.7; Beta apoptosis: -2; T cruzi inh: -11; A1 inh: 1.1

Results for COC(=O)c1cccc(-n2nnnc2SCC(=O)Nc2nc3c(s2)CCCC3)c1 ?
UCH37 inh: 3.5; Ecoli growth: 0.7; Beta apoptosis: 6; T cruzi inh: 10; A1 inh: -0.2

Reprinted from the part before: two compounds; new compounds follow.
What do the screens show for `Cc1cc(C)n(C(=O)c2cc3ccccc3c(=O)o2)n1`?
UCH37 inh: -1.9; Ecoli growth: 0.7; Beta apoptosis: -2; T cruzi inh: -11; A1 inh: 1.1

Results for COC(=O)c1cccc(-n2nnnc2SCC(=O)Nc2nc3c(s2)CCCC3)c1 ?
UCH37 inh: 3.5; Ecoli growth: 0.7; Beta apoptosis: 6; T cruzi inh: 10; A1 inh: -0.2

What do the screens show for `O=C(CSc1nnc(-c2cccnc2)o1)N1CCCCC1`?
FGF22 binding: inactive; Ecoli rRNA inh: -2; UCH37 inh: 0.6; Ecoli growth: 0.69; Beta apoptosis: 3; MLL AF4-AF9 inh: 0.0; T cruzi inh: 2; A1 inh: -0.4; Ecoli rRNA inh OD600: -1; Ecoli rRNA inh RFP: -2.7

What do the screens show for `COc1ccc(NC(=O)COc2ccc(CNCCCN3CCOCC3)cc2OC)cc1`?
UCH37 inh: 1.9; Ecoli growth: 0.67; Beta apoptosis: 1; T cruzi inh: 29; A1 inh: -0.1

Results for O=C(CN1C(=O)NC(c2ccccc2)(c2ccccc2)C1=O)Nc1cccnc1Cl ?
FGF22 binding: inactive; Ecoli rRNA inh: -10; UCH37 inh: 2.8; Ecoli growth: 0.66; Beta apoptosis: -7; MLL AF4-AF9 inh: -1.1; T cruzi inh: 2; A1 inh: 0.2; Ecoli rRNA inh OD600: -15; Ecoli rRNA inh RFP: -0.8

Results for Cc1ccc(OCC(=O)Nc2ccccc2C(=O)N2CCCCC2)cc1 ?
FGF22 binding: inactive; Ecoli rRNA inh: -3; UCH37 inh: 1.1; Ecoli growth: 0.74; Beta apoptosis: 1; MLL AF4-AF9 inh: -2.0; T cruzi inh: -5; A1 inh: -0.1; Ecoli rRNA inh OD600: -5; Ecoli rRNA inh RFP: -0.9

What do the screens show for `O=C(NCCNC(=O)c1cc(OCC(F)(F)F)ccc1OCC(F)(F)F)Nc1cccc(C(F)(F)F)c1`?
UCH37 inh: 4.4; Ecoli growth: 0.7; Beta apoptosis: 19; T cruzi inh: -24; A1 inh: 0.1

How did Cc1cccc(CN2CCC(CNC(=O)CSc3cc(=O)n(C)c4cc(Cl)ccc34)CC2)c1 do in these assays?
FGF22 binding: inactive; Ecoli rRNA inh: 6; UCH37 inh: 3.5; Ecoli growth: 0.65; Beta apoptosis: -7; MLL AF4-AF9 inh: -1.1; T cruzi inh: 47; A1 inh: 0.5; Ecoli rRNA inh OD600: 4; Ecoli rRNA inh RFP: -2.7

How did COc1ccc(C(=O)Nn2c(CCC(=O)O)ccc2-c2ccc(C)cc2)cc1OC do in these assays?
Ecoli rRNA inh: 6; UCH37 inh: 1.6; Ecoli growth: 0.7; Beta apoptosis: 2; MLL AF4-AF9 inh: 1.3; T cruzi inh: -17; A1 inh: 0.5; Ecoli rRNA inh OD600: 0; Ecoli rRNA inh RFP: -0.1

What do the screens show for `CC(C)c1ccc(NC(=O)C2CCN(S(=O)(=O)c3ccc4c(c3)C(C)(C)C(=O)N4C)CC2)cc1`?
FGF22 binding: inactive; Ecoli rRNA inh: -9; UCH37 inh: 4.7; Ecoli growth: 0.77; Beta apoptosis: -3; MLL AF4-AF9 inh: -5.1; T cruzi inh: 10; A1 inh: 0.0; Ecoli rRNA inh OD600: -24; Ecoli rRNA inh RFP: -1.7

How did O=C(CN1CCN(c2ccc(C(F)(F)F)cn2)CC1)NCc1ccc2c(c1)OCO2 do in these assays?
FGF22 binding: inactive; Ecoli rRNA inh: -29; UCH37 inh: 2.5; Ecoli growth: 0.66; Beta apoptosis: -3; MLL AF4-AF9 inh: -2.6; T cruzi inh: 23; A1 inh: -0.9; Ecoli rRNA inh OD600: -25; Ecoli rRNA inh RFP: -6.1

Results for CSCCC(NC(=O)c1ccco1)C(=O)NCC(C)(C)N1CCOCC1 (centres undefined) ?
FGF22 binding: inactive; Ecoli rRNA inh: 9; UCH37 inh: 4.7; Ecoli growth: 0.67; Beta apoptosis: -9; MLL AF4-AF9 inh: -0.9; A1 inh: 1.6; Ecoli rRNA inh OD600: 9; Ecoli rRNA inh RFP: -3.5

Results for COc1ccc(C(=O)Nc2ncccc2C)cc1S(=O)(=O)N1CCOCC1 ?
FGF22 binding: inactive; Ecoli rRNA inh: 4; UCH37 inh: 3.0; Ecoli growth: 0.68; Beta apoptosis: -6; MLL AF4-AF9 inh: 0.6; T cruzi inh: -19; A1 inh: -1.0; Ecoli rRNA inh OD600: 3; Ecoli rRNA inh RFP: -1.7

What do the screens show for `CCOC(=O)c1cc(C(=O)NC(C)c2ccccc2)c(C)[nH]c1=O` (centres undefined)?
FGF22 binding: inactive; Ecoli rRNA inh: 16; UCH37 inh: -8.9; Ecoli growth: 0.66; Beta apoptosis: 7; MLL AF4-AF9 inh: 0.2; T cruzi inh: 8; A1 inh: -1.7; Ecoli rRNA inh OD600: 16; Ecoli rRNA inh RFP: 2.1

What do the screens show for `CCOC(=O)c1c(-c2cccc([N+](=O)[O-])c2)csc1NC(=O)C1CC1`?
UCH37 inh: 4.4; Ecoli growth: 0.66; Beta apoptosis: 4; T cruzi inh: 11; A1 inh: 0.0

Results for CCCc1sc(C(=O)Nc2nnc(C3CC3)s2)cc1CC ?
FGF22 binding: inactive; Ecoli rRNA inh: -3; UCH37 inh: -5.4; Ecoli growth: 0.69; MLL AF4-AF9 inh: -5.7; Ecoli rRNA inh OD600: -1; Ecoli rRNA inh RFP: -1.0

How did Cc1cc(C)n(C(=O)CNC(=O)c2cccc(Cl)c2)n1 do in these assays?
FGF22 binding: inactive; Ecoli rRNA inh: 2; UCH37 inh: 2.0; Ecoli growth: 0.67; MLL AF4-AF9 inh: 1.2; T cruzi inh: -6; Ecoli rRNA inh OD600: 3; Ecoli rRNA inh RFP: 1.8

How did Cn1c(NCc2ccco2)nc2ccccc21 do in these assays?
UCH37 inh: -1.2; Ecoli growth: 0.67; Beta apoptosis: 7; T cruzi inh: -5; A1 inh: 0.3

Results for CCC1CCCCN1CCCNC(=O)Cn1cc2c(n1)-c1c(oc(C(=O)N3CCCC3)c1C)CC2 (centres undefined) ?
FGF22 binding: inactive; Ecoli rRNA inh: 4; UCH37 inh: -6.1; Ecoli growth: 0.62; Beta apoptosis: 5; MLL AF4-AF9 inh: 2.4; T cruzi inh: 15; A1 inh: 0.9; Ecoli rRNA inh OD600: -7; Ecoli rRNA inh RFP: 4.4

Results for CC(NC(=O)Nc1ccccc1)C(c1cccs1)N1CCN(C)CC1 (centres undefined) ?
FGF22 binding: inactive; Ecoli rRNA inh: 3; UCH37 inh: 0.4; Ecoli growth: 0.76; Beta apoptosis: -4; MLL AF4-AF9 inh: -3.0; T cruzi inh: -15; A1 inh: 0.5; Ecoli rRNA inh OD600: 6; Ecoli rRNA inh RFP: -5.7

Source: PubChem BioAssay
